Assay outcomes: PubChem BioAssay, Johns Hopkins Ion Channel Center
KCNQ2 pot = potentiators of rat KCNQ2 potassium channel. CHO-K1 KCNQ2, FluxOR thallium flux fluorescence; hits give high values. B-score at 10 µM. hit rate 0.54% among 310,000. AID 2239, 2010. Potassium voltage-gated channel subfamily KQT member 2 (Rattus norvegicus), O88943;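 active means fluorescence ratio B-score at least 3 SD of library B-scores, with initial fluorescence B-score within 3 SD, cut at about 5.3 in these data; same plate scores as AID 2156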;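 further: B-score of peak minus minimum over baseline fluorescence ratio after K+ and Tl+ stimulus; positive B-score means potentiation of KCNQ2 with more thallium influx and brighter signal; only the inactives scoring about 0 or higher are listed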
Target sequence (O88943 whole entry, looked up): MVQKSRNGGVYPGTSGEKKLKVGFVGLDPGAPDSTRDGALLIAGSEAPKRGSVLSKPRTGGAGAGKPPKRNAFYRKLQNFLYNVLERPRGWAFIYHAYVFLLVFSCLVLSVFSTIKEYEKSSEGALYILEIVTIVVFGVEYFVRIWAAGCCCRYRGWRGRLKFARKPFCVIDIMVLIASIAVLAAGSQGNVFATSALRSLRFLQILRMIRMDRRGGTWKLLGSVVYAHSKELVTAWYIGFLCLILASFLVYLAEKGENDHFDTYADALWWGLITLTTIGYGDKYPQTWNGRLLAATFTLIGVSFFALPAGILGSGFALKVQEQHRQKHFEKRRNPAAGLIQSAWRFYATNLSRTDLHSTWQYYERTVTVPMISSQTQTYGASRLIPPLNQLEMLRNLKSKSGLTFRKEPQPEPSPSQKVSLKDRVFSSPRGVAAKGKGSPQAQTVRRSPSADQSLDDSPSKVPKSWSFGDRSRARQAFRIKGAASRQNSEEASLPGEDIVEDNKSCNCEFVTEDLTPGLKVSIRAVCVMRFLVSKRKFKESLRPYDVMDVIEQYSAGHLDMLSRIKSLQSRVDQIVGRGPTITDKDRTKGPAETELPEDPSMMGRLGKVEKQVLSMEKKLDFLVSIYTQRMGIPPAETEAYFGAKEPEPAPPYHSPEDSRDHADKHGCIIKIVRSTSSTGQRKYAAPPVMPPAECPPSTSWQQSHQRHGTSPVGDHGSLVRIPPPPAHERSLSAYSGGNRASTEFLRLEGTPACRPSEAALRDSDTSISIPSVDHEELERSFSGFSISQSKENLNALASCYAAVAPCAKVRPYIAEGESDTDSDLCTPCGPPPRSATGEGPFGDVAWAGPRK
KCNQ2 pot baseline = further read-out of KCNQ2 pot, marked with its call; B-score; compound at 10 µM; measured here: initial fluorescence intensity artifact check;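 brightness before thallium and not channel activity; 0 = typical well and far values either way flag optical interference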
Active calls of the source: *. Only part of the results is shown. The share of hits here may be higher or lower than overall.

entry	KCNQ2 pot	KCNQ2 pot baseline	SMILES
1	0.01	-0.65	CN1CC(=O)N(C)c2nc(Br)n(C)c2C1=O
2	0.56	-1.2	O=C(COc1cccnc1[N+](=O)[O-])Nc1cccc(S(=O)(=O)N2CCCCC2)c1
3	0.92	-0.73	COc1ccc(-c2nc(N3CCCC3)[nH]c(=O)c2C#N)cc1
4	0.36	1.1	C=CCn1c(O)c(N=NC(=O)CNC(=O)Cc2ccccc2)c2ccccc21
5	1.2	0.23	CC(=O)NN1C(=O)c2ccccc2NC1c1ccc(N(C)C)cc1 (stereo unspecified)
6	0.92	1.7	COC(=O)C1CCN(c2ccc([N+](=O)[O-])cc2[N+](=O)[O-])CC1
7	0.25	0.87	Cc1ccc(NC(=O)CSC2=NCCN2)cc1
8	0.28	0.92	O=C(CCc1ccccc1)Nc1ccc(F)c([N+](=O)[O-])c1
9	1.9	-2.5	CCOC(=O)c1c(NC(=O)COC(=O)c2ccc([N+](=O)[O-])cc2)sc(C(=O)N(C)C)c1C
10	0.53	-0.15	CCOC(=O)Cc1csc(NS(C)(=O)=O)n1
11	2.5	0.79	O=C(O)C(O)C(O)c1nc2ccccc2[nH]1 (stereo unspecified)
12	0.68	-1.4	CC(C)c1ccc(NC(=O)NC2CCN(CC(=O)Nc3cccc4ccccc34)CC2)cc1
13	0.68	-1.2	CN(C)c1cccc(C(=O)N/N=C/c2ccoc2)c1
14	0.03	1.2	Cc1ccc(S(=O)(=O)N(CCO)Cc2cc3ccc(C)c(C)c3[nH]c2=O)cc1
15	2.2	0.28	CCN(Cc1cc2cc(C)ccc2[nH]c1=O)C(=O)c1cccc([N+](=O)[O-])c1
16	1.9	-0.8	CCC(C)C(NC(=O)OCc1ccccc1)C(=O)NC(Cc1ccc(O)cc1)C(=O)OC (stereo unspecified)
17	0.86	0.46	Nc1nonc1-c1noc(CCCN2C(=O)c3ccccc3C2=O)n1
18	0.04	-0.11	CCS(=O)(=O)c1nc(S(=O)(=O)c2ccc(Cl)cc2)c(N2CCC(O)CC2)s1
19	0.49	-1.5	COc1cc2c(cc1OC)C(C(=O)O)C(c1cc(Br)c(O)c(OC)c1)N(C)C2=O (stereo unspecified)
20	0.48	-0.42	COCCNCC1C(Oc2ccc(Cl)cc2)C(=O)N1c1ccccc1C (stereo unspecified)
21	0.04	-0.56	Cc1cc(C)n2nc(SCC(=O)Nc3ccccc3C)nc2n1
22	0.03	0.51	CCOc1ccc(N(C(C)C(=O)Nc2ccc(OC)cc2)S(C)(=O)=O)cc1 (stereo unspecified)
23	2.4	1.7	Cc1cccc(Nc2nnc(SCC3CCCCO3)s2)c1C (stereo unspecified)
24	0.83	-0.34	COc1ccc(N2C(=O)CN(Cc3ccc(OC)c(OC)c3)C2=S)cc1
25	0.92	-0.31	CCCn1c(SCC(=O)Nc2c(CC)cccc2CC)nnc1C(C)C
26	0.39	-0.32	Cc1ccccc1CC(=O)N1CCN(C(=O)c2ccco2)CC1
27	0.27	-0.05	O=C(O)C1=C[C@H](c2ccccc2)C[C@H](OCCCCO)O1
28	0.04	0.69	CCCCNC(=O)Nc1nc2ccc(CC)cc2s1
29	0.94	-3.3	CCOc1ccc(CN2CCNC(=O)C2CC(=O)NCc2csc(C)n2)cc1 (stereo unspecified)
30	0.03	-1.2	COCc1cc(C)nc(NCCO)c1C#N

Some of the entries so far, screen by screen:
12) CC(C)c1ccc(NC(=O)NC2CCN(CC(=O)Nc3cccc4ccccc34)CC2)cc1
20) COCCNCC1C(Oc2ccc(Cl)cc2)C(=O)N1c1ccccc1C (stereo unspecified)
24) COc1ccc(N2C(=O)CN(Cc3ccc(OC)c(OC)c3)C2=S)cc1
16) CCC(C)C(NC(=O)OCc1ccccc1)C(=O)NC(Cc1ccc(O)cc1)C(=O)OC (stereo unspecified)

| Assay by compound | 12 | 20 | 24 | 16 |
| --- | --- | --- | --- | --- |
| KCNQ2 pot | 0.68 | 0.48 | 0.83 | 1.9 |
| KCNQ2 pot baseline | -1.4 | -0.42 | -0.34 | -0.8 |

Next structures:
entry	KCNQ2 pot	KCNQ2 pot baseline	SMILES
31	0.59	0.01	CCOc1ccc(/C=N/Nc2ccccn2)cc1OC
32	4.2	0.07	C/C(Cn1nc([N+](=O)[O-])cc1C)=N\NC(=O)c1ccc(C(C)(C)C)cc1
33	1.2	-1.2	Cc1ccc(S(=O)(=O)N2CCC(C(=O)OCC(=O)Nc3cc(S(C)(=O)=O)ccc3Cl)CC2)cc1C
34	0.12	1.8	CCOc1cc(/C=N/NC(=O)C(=O)NC2CC2)cc(Br)c1O
35	0.19	-0.98	COc1cccc(CSc2nc3ccncc3[nH]2)c1
36	0.37	-1.2	O=C(NCc1ccc(Cl)cc1)C1CCN(S(=O)(=O)c2ccc(N3CCCC3=O)cc2)CC1
37	0.06	-3.2	CCCC(C(=O)NCc1ccco1)N(C(=O)CNS(=O)(=O)c1ccccc1)c1ccccc1OC (stereo unspecified)
38	1	-0.05	CCCCCC(=O)Nc1cccc(C2=NOC3(C2)C[C@H](C(N)=O)N(C(=O)c2ccccc2)C3)c1 (stereo partly specified)
39	0.2	1.1	CCOC(=O)N1CCC(NCCNC(=O)c2ccccc2)CC1
40	0.18	0.34	COc1cc(OC)cc(C(=O)NCCS(=O)(=O)N2CCN(Cc3ccccc3)CC2)c1
41	0.73	0.21	COc1ccc(N(C)S(=O)(=O)c2cccc(C(=O)N3CCN(S(=O)(=O)c4ccc(C)cc4)CC3)c2)cc1
42	1.2	-0.55	COc1ccc(/C=C2\C(=O)OCc3cc(OC)c(OC)cc32)cc1OC
43	0.48	-0.26	O=C(O)C1=C[C@H](c2cccs2)C[C@H](OCc2ccc(CO)cc2)O1
44	0.19	0.68	Cc1cccc(-c2nc(CS(=O)CC(=O)N3CC(C)CC(C)C3)c(C)o2)c1 (stereo unspecified)
45	1.9	0.49	CCOC(=O)c1ccc(N2CCOCC2)c(NC(=O)c2nccnc2C(=O)O)c1
46	1.5	-0.2	CC(C)(C)OC(=O)NCCCC[C@@H](C(=O)N1CCN(C(=O)OC(C)(C)C)CC1)n1cc(CCC(=O)O)nn1
47	0.67	0.79	O=C(CN1CCN(Cc2ccc3c(c2)OCO3)CC1)Nc1ccc2c(c1)OCCO2
48	1.4	1.6	CCCN(CC1CC1)C(=O)COC(=O)c1ccc(CNS(=O)(=O)c2ccc(F)c(Cl)c2)cc1
49	0.58	-0.15	CCNc1nc(NC(C)C)nc(Oc2ccc(OCCOc3ccccc3)nn2)n1
50	0.03	-0.92	COc1ccc(C(=O)CN2CCN(S(=O)(=O)c3cccc([N+](=O)[O-])c3)CC2)cc1OC
51	0.57	-0.68	Cc1nn(C2CCS(=O)(=O)C2)c(Cl)c1/C=C/C(=O)OCC(N)=O (stereo unspecified)
52	1.2	-0.21	CS(=O)(=O)N1c2cccc3cccc(c23)S1(=O)=O
53	0.54	0.03	COc1ccc(C(=O)CCC(=O)Nc2cccnc2)cc1OC
54	1.4	2.1	COc1cc([N+](=O)[O-])ccc1NC(=O)CN1CCCC1
55	1.8	-0.3	C/C(=N\NC(=O)c1cc(-c2ccc(C)s2)nc2ccccc12)c1cccnc1
56	0.14	0.84	O=[N+]([O-])c1cccc(-c2nnc(-c3ccccc3)o2)c1
57	6.7*	0.28*	Cc1sc2nc3ccc(NCc4ccco4)nn3c(=O)c2c1C
58	0.12	1.2	COc1ccccc1NCc1nnc(-c2ccccc2)o1
59	0.49	-1.2	COC(=O)c1cc(Sc2cccc(Cl)c2Cl)ccn1
60	0.84	-2	Cc1ccccc1N1C(=O)C(Cc2ccc(F)cc2)S/C1=C(\C#N)C(N)=O (stereo unspecified)

3 entries from above, in transposed form.
42. COc1ccc(/C=C2\C(=O)OCc3cc(OC)c(OC)cc32)cc1OC
54. COc1cc([N+](=O)[O-])ccc1NC(=O)CN1CCCC1
36. O=C(NCc1ccc(Cl)cc1)C1CCN(S(=O)(=O)c2ccc(N3CCCC3=O)cc2)CC1
assay / compound | 42 | 54 | 36
KCNQ2 pot | 1.2 | 1.4 | 0.37
KCNQ2 pot baseline | -0.55 | 2.1 | -1.2

Back to the main list; the two compounds before the break are reprinted first.
entry	KCNQ2 pot	KCNQ2 pot baseline	SMILES
59	0.49	-1.2	COC(=O)c1cc(Sc2cccc(Cl)c2Cl)ccn1
60	0.84	-2	Cc1ccccc1N1C(=O)C(Cc2ccc(F)cc2)S/C1=C(\C#N)C(N)=O (stereo unspecified)
61	0.49	1.4	CC(=O)NC(C)c1nc2ccccc2n1C(C)C (stereo unspecified)
62	1.2	1.2	O=C(NN=C1CCCC1)c1ccc(Cl)cc1
63	4.6	2.8	CCOC(=O)C1=C(O)c2ccccc2C(=O)/C1=C\c1ccc(CC)cc1
64	0.18	1.3	CS(=O)(=O)C1=C(O)C(=O)N(c2ccccc2)C1c1ccccc1 (stereo unspecified)
65	0.02	-0.81	CCOc1ccc(NC(=O)c2ccc3nccnc3c2)cc1
66	0.68	0	CCOC(=O)CN(C(=O)CSc1nnc(-c2ccncc2)n1CCCN(C)C)c1ccccc1
67	1.4	0.99	Cc1cc(C(=O)N2CCc3ccccc3C2)no1
68	0.76	-0.14	COc1ccc(Cl)cc1C(=O)NNC(=O)CSc1nnnn1C
69	0.01	-0.58	CCC(=O)c1ccc(OCC(O)Cn2cnc3ccccc32)cc1 (stereo unspecified)
70	1.2	2.4	CCOc1ccc2ccccc2c1C(=O)NCC(c1ccc(N(C)C)cc1)N(C)C (stereo unspecified)
71	0.18	-0.65	Clc1ccc(-c2ccc(-c3nn4c(-c5ccco5)nnc4s3)o2)cc1
72	0.57	1.9	COC(=O)c1ccccc1NC(NC(=O)c1ccco1)C(=O)c1ccc(C)cc1 (stereo unspecified)
73	1.9	0.01	COc1ccc(OC)c2[nH]c(=O)c(CCNC(=S)NC(C)(C)C)cc12
74	0.16	-1.2	Cc1cc(NC(=O)C2CC=CCC2C(=O)O)ccc1NC(=O)c1ccccc1 (stereo unspecified)
75	0.07	-2.7	COC(=O)C1=C(C)N(c2ccc(F)cc2)/C(=C/c2ccc(O)cc2)C1=O
76	1.6	-1.8	COC(=O)C1C(c2ccc(OC)cc2)Nc2nnc(C(F)(F)F)n2C1(C)O (stereo unspecified)
77	1.9	0.92	N=C(N)c1ccc(OCCCCCOc2ccc(C(=N)N)cc2)cc1
78	0.66	0.74	O=C(N/N=C/c1cccc(O)c1)c1cc(-c2ccc3c(c2)OCO3)n[nH]1
79	0.01	0.85	O=C(O)CCn1c(O)c(C=C2N=c3ccccc3=N2)sc1=S
80	0.32	-0.22	Oc1ccc(C[C@@H]2CNCCN2CCc2cccc(F)c2)cc1
81	0.19	-1.6	O=C(c1ccc(COc2c(F)c(F)cc(F)c2F)o1)N1CCN(c2ccccc2)CC1
82	0.54	-1.3	Cc1ccc(C(=O)NCCN2CCN(C(=O)c3ccc(C)c(C)c3)CC2)cc1C
83	0.16	-1.6	CCc1ccc(NC(=S)N2CCN(S(=O)(=O)c3ccccc3)CC2)cc1
84	0.07	0.13	O=C(c1ccc(-n2cnnn2)cc1)N(C1CCCCC1)C1CCCCC1
85	1.2	0.03	CS(=O)(=O)Nc1ccccc1C(=O)N1CCOCC1
86	1.5	-3.4	CCCc1nc2ccccc2c(C(=O)O)c1CC
87	0.74	-0.49	Cn1cccc1CC(=O)NNC(=S)Nc1ccc(F)cc1
88	0.89	0.53	CCOC(=O)c1sc(=NC(=O)c2ccc(S(=O)(=O)N(C)c3ccccc3)cc2)n(C)c1C
89	0.01	1.3	COc1ccc(C(=O)O/N=C(\C)c2nccs2)cc1
90	0.36	-1.1	Cc1cc(C)c(S(=O)(=O)NCc2cn3c(C)csc3n2)c(C)c1
91	0.9	-0.38	COc1cc(/C=N/n2c(-c3cc(C)[nH]n3)n[nH]c2=S)ccc1O
92	0.83	0.78	COc1ccccc1CNc1ncnc2sccc12
93	0.15	0.06	CCN1C(=O)/C(=C/c2c(C)nn(C)c2C)SC1=S
94	0.97	-0.37	Cc1ccccc1OCCn1c(=S)[nH]c2c(N)ncnc21
95	1.4	-0.41	Cc1nc(N2CCN(Cc3ccccc3)CC2)nc2c1C(=O)CCC2
96	0.18	-0.29	CN(C1CCCCC1)S(=O)(=O)c1cc2c(cc1Cl)NC(=O)CO2
97	0.29	-0.63	Cc1ccc(OCCN2C(=O)CSC2=O)cc1
98	0.08	0.09	CC(=O)c1cn(C)c(=O)[nH]c1=O
99	0.06	-3	O=C(N/N=C/c1ccccn1)c1ccc2nc[nH]c2c1
100	0.06	-1.2	CCc1nnc(NC(=O)CSc2nc3cc(OC)ccc3cc2C)s1
101	2.1	0.87	CCN(CC)S(=O)(=O)c1ccc(C(=O)Nc2nnc(NC(=S)Nc3ccccc3)s2)cc1
102	0.03	0.4	CCOc1ccc2nc(NS(=O)(=O)c3cccs3)sc2c1
103	0.73	-1.1	C=CCOc1ccc(C(=O)N(Cc2ccc(N(C)C)cc2)C2CCS(=O)(=O)C2)cc1 (stereo unspecified)
104	2.1	-0.94	COC(=O)C(NC(=O)c1ccco1)(Nc1cc(C)ccn1)C(F)(F)F (stereo unspecified)
105	1.4	-0.35	Clc1cccc(CN2CCN(c3nc4nonc4nc3NC3CC3)CC2)c1
106	0.57	-2.3	Cc1ccc(NS(=O)(=O)c2ccc(NC(=O)CSc3ccc(Cl)cc3)cc2)c(C)c1
107	1.4	-0.01	O=C(O)c1ccccc1CSc1nnc2c(n1)[nH]c1ccccc12
108	0.85	-0.9	COc1ccc(CCN2C(=O)NC(NC(=O)C(C)(C)C)(C(F)(F)F)C2=O)cc1OC (stereo unspecified)
109	0.6	-0.37	Cc1ccc(OCCNC(=O)CCc2ccccc2)cc1C
110	1.9	-0.09	Nc1nc(-c2ccccc2Br)cs1
